# Mtb hypoxia inh: Mtb hypoxia fluorescent reporter inhibition. M. tuberculosis hypoxia-regulated fluorescent reporter, fluorescence. hit rate 0.1% among 300,000. fluorescence inhibition, % (concentration not given with the values);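 active means 35 to 45% if threefold the growth effect, above 45% if 1.5-fold the growth effect; inactive means the rest, general growth blockers included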;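 further: wells of about 50 µL received 100 nL stock; 0% = vehicle wells and 100% = reference inhibitor wells; whole bacteria with a GFP reporter of the hypoxia response; strong numbers were not always called active; many hits fall short of the cut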
# Bead autofluor: compound fluorescence in toxin protease inhibitor counterscreen. hit rate 3.1% among 360,000. fluorescence intensity (concentration not given with the values). compound autofluorescence counterscreen, microsphere flow cytometry; hits give high values;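 active means at least 3 SD above the mean of all compounds, about 16000 in these data; inconclusive means too few beads counted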;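 further: 100 nL of 1 mM stock went into each well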
# ugtP null kill: kills S. aureus RN4220 lacking UgtP; growth inhibition, % (no concentration beside the values); hit rate 0.54% among 330,000; S. aureus RN4220 ugtP deletion, OD600 growth, 16 h; some inactives read as strong as hits; AID 1259309;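 active means z-score under -3 and OD600 up to 0.15 on both plates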;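 further: plate controls were untreated wells for no effect and antibiotic for full effect; wells of about 80 µL received 100 nL stock; the first replicate is given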
# Sa RN4220 lethal: kills Staphylococcus aureus RN4220; S. aureus RN4220 growth, OD600, 16 h; AID 1259311; inhibition, % (no concentration beside the values); hit rate 0.33% among 330,000;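 active means z-score of -3 or lower and OD600 up to 0.18 on both plates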;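 further: plate controls were untreated cells for no effect and reference antibiotic for full effect; stock transfer was 100 nL into about 80 µL; one replicate is shown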
# PrP UTR inh: inhibition of PrP 5' UTR reporter expression; cell-based PrP 5' UTR mRNA reporter, plate reader; inhibition, % (no concentration beside the values); hit rate 0.35% among 340,000; AID 488862;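 active means every replicate at 50% or more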;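 further: 0 = median of the neutral control wells; tested in H4 reporter cells; numbers are from one replicate; inactives centre near -14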
# BJeLR viability: kills HRASV12-expressing BJeLR cells | hit rate 0.17% among 300,000 | BJeLR (HRASV12) viability, CellTiter-Glo ATP luminescence, 48 h; reference of the scale not given here | AID 1554 | inhibition, % (test concentration not listed);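 active means replicate mean above 50%; inconclusive means above 50% but judged a plate artefact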;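 further: 50 nL library stock added to about 25 µL; numbers are from one replicate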
# Mtb hypoxia inh growth: further read-out of Mtb hypoxia inh, marked with its call; growth inhibition, %; measured here: M. tuberculosis growth (absorbance);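 0% = vehicle and 100% = reference antibiotic; read after six days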
# Numbers without * were called inactive; ? = inconclusive; nt = no result given.
SMILES,Mtb hypoxia inh,Mtb hypoxia inh growth,Bead autofluor,ugtP null kill,Sa RN4220 lethal,PrP UTR inh,BJeLR viability
COc1ccc(C(C(=O)NCC2CCCO2)N(C(=O)CNC(=O)c2cccs2)c2ccc(NC(C)=O)cc2)cc1OC (centres undefined),8,6,4182,-3,5.5,0,1
COc1ccc(-n2c(=O)[nH]cc(C(=O)Nc3ccc4c(c3)OCCO4)c2=O)cc1OC,7,8,5665,5,4.6,-5,3
S=c1[nH]nc(-c2ccccn2)n1N=Cc1ccc(Cl)c(Cl)c1,0,-7,nt,0,5.9,nt,nt
O=C(c1cccnc1)N(Cc1ccccc1)C(=O)c1cccnc1,4,6,3797,1,7.7,-23,nt
CCOC(=O)c1ccc(N=Cc2c(O)c3ccccc3oc2=O)cc1,4,-1,4086,3,3.7,-9,-3
O=C(CN1CCN(C(=O)CCC(=O)N2CCC(c3ccccc3)=N2)CC1)Nc1ccc(F)cc1,1,2,5076,8,3.7,5,nt
Nc1n[nH]c(=S)n1-c1ccc(Cl)cc1,2,-2,3581,6,3.5,3,4
CC1CCN(C2(O)C(=O)Nc3ccc(Cl)cc32)CC1 (centres undefined),18,11,3721,17,5.2,-19,0
O=C(c1ccc(N2CC3CC(C2)c2cccc(=O)n2C3)c([N+](=O)[O-])c1)N1CCCCC1 (centres undefined),9,2,2214,7,-0.6,-21,17
O=C(NCC(c1ccco1)N1CCc2ccccc2C1)C(=O)Nc1cc(F)ccc1F (centres undefined),6,0,5503,14,0.0,-2,6
CC1NC(=O)C(CCC(=O)O)NC(=O)c2cc([N+](=O)[O-])cc(F)c2NCCCC(C(N)=O)NC1=O (centres undefined),0,3,nt,-4,-2.9,nt,nt
COc1ccc(C(=O)Nc2nc3ccc(S(C)(=O)=O)cc3s2)cc1,nt,nt,3916,2,0.8,-6,0
Cc1ccc(-c2cc(C)nc3nc(N)nn23)cc1,3,1,16426*,5,4.0,0,6
Cc1c(Cl)cccc1NC(=O)Cn1c(CCC(=O)O)ccc1-c1ccc(Cl)cc1,-3,-1,3423,-6,7.6,-2,8
N#Cc1ccccc1S(=O)(=O)N1CCN(C(=O)C2CC(=O)N(c3ccc4c(c3)OCCO4)C2)CC1 (centres undefined),6,-10,2898,2,0.9,-8,nt
Cn1c(O)c(C=NCCCCCCCCCCC(=O)O)c(=O)n(C)c1=O,2,-8,3242,10,2.8,-14,-1
O=C(Cc1cccc2ccccc12)Nc1ccc(-c2cc3ccccc3oc2=O)cc1,13,9,2700,-10,-12,41,-5
COc1ccc(SN=C2C(C)=CC(=O)C=C2C)cc1,8,14,3191,3,4.5,-10,-7
Cc1nc2ccccc2cc1OCc1ccc(F)cc1,nt,nt,10136,-7,25,0,nt
Cc1ccc(S(=O)(=O)N2CCN(CC(=O)NN=Cc3ccccc3OCC(=O)O)CC2)cc1,7,6,nt,10,2.1,nt,nt
CC(=NNS(=O)(=O)c1cccc([N+](=O)[O-])c1)c1cccnc1,9,-1,nt,4,8.2,nt,nt
CCN(CCC(=O)Nc1ccc(Br)c(C)c1)Cc1ccccc1,nt,nt,2513,5,-7.9,4,0
CCOC(=O)c1sc(SC)c2c1CCC/C2=N/OC,nt,nt,4453,nt,nt,-21,-4
COc1ccc(S(=O)(=O)NCCc2ccccc2)cc1OC,5,-10,nt,0,4.0,-22,0
CCc1ccc(NC(=O)C(=O)NNC(=O)c2ccc(OC)cc2)cc1,nt,nt,4431,nt,nt,-7,-3
Cc1nnc(NC(=O)Cn2cnc3c2c(=O)n(C)c(=O)n3C)s1,-1,2,3094,8,7.7,-11,-4
CCCc1cc2c(cc1NC(=O)c1ccc(C)cc1)OCO2,-3,6,2559,-3,2.4,-17,20
Cc1ccc(OCC(=O)N2C(C)CCCC2C)c([N+](=O)[O-])n1 (centres undefined),5,5,5848,2,3.0,-11,nt
O=C(COc1ccc2ccccc2c1)N1CCNCC1,2,7,5700,3,2.1,-10,-9
O=C(NC(=S)NCC1CCCO1)C(c1ccccc1)c1ccccc1 (centres undefined),7,7,2484,7,1.3,24,2

# Some of the entries so far, with bars between the fields:
SMILES | Mtb hypoxia inh | Mtb hypoxia inh growth | Bead autofluor | ugtP null kill | Sa RN4220 lethal | PrP UTR inh | BJeLR viability
Cc1ccc(S(=O)(=O)N2CCN(CC(=O)NN=Cc3ccccc3OCC(=O)O)CC2)cc1 | 7 | 6 | nt | 10 | 2.1 | nt | nt
CC(=NNS(=O)(=O)c1cccc([N+](=O)[O-])c1)c1cccnc1 | 9 | -1 | nt | 4 | 8.2 | nt | nt
CCN(CCC(=O)Nc1ccc(Br)c(C)c1)Cc1ccccc1 | nt | nt | 2513 | 5 | -7.9 | 4 | 0
CCOC(=O)c1sc(SC)c2c1CCC/C2=N/OC | nt | nt | 4453 | nt | nt | -21 | -4
COc1ccc(S(=O)(=O)NCCc2ccccc2)cc1OC | 5 | -10 | nt | 0 | 4.0 | -22 | 0

# Following part.
SMILES,Mtb hypoxia inh,Mtb hypoxia inh growth,Bead autofluor,ugtP null kill,Sa RN4220 lethal,PrP UTR inh,BJeLR viability
CCOC(=O)c1sc(N2C(=O)C(O)=C(C(=O)c3ccco3)C2c2ccc([N+](=O)[O-])cc2)nc1C (centres undefined),13,24,5130,29,11,-8,3
Cc1ccc(-c2nnc(SCC(=O)NC3CCS(=O)(=O)C3)nc2-c2ccc(C)cc2)cc1 (centres undefined),4,4,2503,10,5.0,6,-14
O=C(NN=Cc1ccc([N+](=O)[O-])s1)c1ccccc1Br,17,7,nt,45,41,nt,nt
CCOc1ccc(-c2nc(N)ncc2-c2ccc(Cl)cc2)c(O)c1,14,0,3834,3,-6.3,-3,11
CCOc1ccc(-c2nnc(-c3cccs3)o2)cc1,12,12,4323,-16,3.5,2,12
Cn1ncc(Br)c1C(=O)NN=Cc1ccc(OS(=O)(=O)c2ccccc2)cc1,2,6,nt,1,1.4,nt,nt
COc1cc(C)ccc1OCCOCCOc1ccc([N+](=O)[O-])cc1,11,9,2119,-3,8.0,-21,3
Cc1cc(NC(=O)C2CCCCC2C(=O)O)ccc1NC(=O)c1ccccc1 (centres undefined),-3,1,5663,6,0.8,-9,2
Cc1cccc(C(=O)Nc2ccc(C(=O)N/N=C/c3cccc(C)n3)cc2)c1,nt,nt,3466,nt,nt,-10,-5
COc1ccc(O)c(C=NNC(=S)Nc2cccnc2)c1,12,12,nt,10,2.5,nt,nt
N#CCC(=O)Nc1ccc(C(=O)OCC(=O)NC(=O)Nc2ccc3c(c2)OCCO3)cc1,-4,-3,3483,-7,6.8,-52,nt
Cc1c(C#N)c(N=CN(C)C)c(C(=O)c2ccccc2)n1-c1ccccc1,nt,nt,5058,2,3.3,-14,1
CCOC(=O)N1CCC(Nc2c(NCCCOC)c(=O)c2=O)CC1,-8,20,8101,1,-0.6,nt,11
COc1ccc(S(=O)(=O)NNC(=O)Nc2ccc(F)cc2)cc1,3,-3,nt,4,2.9,nt,-10
Nc1c(-c2ccccc2)c(CSc2nc3ccccc3[nH]2)nn1-c1cccc(Cl)c1,nt,nt,1986,-13,-7.0,-12,6
S=C(NCCc1ccccc1)N1CCN(C(c2ccccc2)c2ccccc2)CC1,4,11,7786,4,1.2,-10,-6
O=C(NCc1ccc(N2CCCC2=O)cc1)NC1CCCCC1,nt,nt,5029,3,0.9,-16,3
COc1ccccc1N(CC(=O)NN=C(C)c1cccc(Br)c1)S(C)(=O)=O,3,2,nt,0,4.3,nt,nt
CCOC(=O)c1c(C)[nH]c(C(C)=NNC(=O)Cn2nc(C)cc2C)c1C,9,15,?,3,4.3,-10,nt
CC(C)C1C(c2ccccc2)NC(c2ccccc2)CC1(O)c1ccc(F)cc1 (centres undefined),0,-2,4296,-28,-6.8,-15,-5
COc1ccc(OC)c(-n2c(=O)c3ccccc3c3ccccc3c2=O)c1,nt,nt,2149,5,4.2,-2,-2
Cc1ccc(S(=O)(=O)N2CCCCC2)cc1NC(=O)c1nn(C)c(=O)c2ccccc12,-2,-4,5622,4,4.6,-18,nt
C[C@H](CO)N1C[C@H](C)[C@@H](CN(C)C(=O)Nc2ccccc2)Oc2c(NS(=O)(=O)c3cccs3)cccc2C1=O,9,9,2831,-1,-15,-11,nt
COc1cc(/C=N/N2CCOCC2)ccc1OC(=O)c1ccco1,nt,nt,4064,nt,nt,-3,4
O=C(Nc1ccccn1)c1ccc([N+](=O)[O-])o1,14,24,2162,23,0.4,-39,-15
CC(=O)NC(CCCNC(=S)NC1CCCCC1)C(=O)O (centres undefined),14,3,4849,8,3.0,-17,0
COc1ccc(CCNC(=O)C2CCCN(S(=O)(=O)c3cc(C)ccc3OC)C2)cc1OC (centres undefined),2,-5,5352,0,0.4,-12,0
COc1ccccc1NS(=O)(=O)c1cccc(NC(=O)C(C)NC(=O)c2ccco2)c1 (centres undefined),2,-1,4276,9,5.0,-6,nt
O=C(O)c1ccc(/C=C2\CCCc3c2nc2ccccc2c3C(=O)O)cc1,3,19,5527,8,5.4,-4,-16
C/C(C=Nn1c(-c2ccncc2)n[nH]c1=S)=C\c1ccco1,7,-3,nt,5,6.4,nt,nt

# Reformatted bar-delimited: entries from further up.
SMILES | Mtb hypoxia inh | Mtb hypoxia inh growth | Bead autofluor | ugtP null kill | Sa RN4220 lethal | PrP UTR inh | BJeLR viability
COc1ccccc1N(CC(=O)NN=C(C)c1cccc(Br)c1)S(C)(=O)=O | 3 | 2 | nt | 0 | 4.3 | nt | nt
CCOC(=O)c1c(C)[nH]c(C(C)=NNC(=O)Cn2nc(C)cc2C)c1C | 9 | 15 | ? | 3 | 4.3 | -10 | nt
CC(C)C1C(c2ccccc2)NC(c2ccccc2)CC1(O)c1ccc(F)cc1 (centres undefined) | 0 | -2 | 4296 | -28 | -6.8 | -15 | -5

# Given with two lines to a compound: entries from further up
# The line under a structure holds: Mtb hypoxia inh	Mtb hypoxia inh growth	Bead autofluor	ugtP null kill	Sa RN4220 lethal	PrP UTR inh	BJeLR viability
Cc1ccc(S(=O)(=O)N2CCCCC2)cc1NC(=O)c1nn(C)c(=O)c2ccccc12
→ -2	-4	5622	4	4.6	-18	nt
S=C(NCCc1ccccc1)N1CCN(C(c2ccccc2)c2ccccc2)CC1
→ 4	11	7786	4	1.2	-10	-6

# Next results follow:
SMILES,Mtb hypoxia inh,Mtb hypoxia inh growth,Bead autofluor,ugtP null kill,Sa RN4220 lethal,PrP UTR inh,BJeLR viability
O=C(NNc1cccc(Cl)n1)c1c(Cl)cccc1Cl,3,0,?,-1,6.5,-9,-23
COc1cccc(OCc2cc(C(=O)N(Cc3nccn3C)C(C)C)no2)c1,6,3,4482,5,4.4,1,0
COc1ccc(Cn2nnnc2CN(Cc2cc3cc(C)ccc3[nH]c2=O)C2CCCC2)cc1,17,5,6748,-13,4.6,-29,0
O=C(CCC(=O)OCc1ccc(C(=O)Oc2ccc(Cl)cc2)cc1)Nc1ccccc1,12,3,2169,-1,5.3,-17,2
COc1ccc2ccccc2c1-c1csc(N)n1,15,11,3318,11,3.4,-15,3
O=C(Cc1sc(-c2ccccc2Cl)nc1-c1ccccc1)Nc1ccc(F)cc1,-6,9,3346,-10,11,-29,-2
CCOC(=O)CSc1nc2c(sc(=S)n2Cc2ccco2)c(=O)n1-c1ccc(F)cc1,5,1,16594*,8,-8.2,-23,-3
O=C1CCC([N+](=O)[O-])C(c2cc3c(cc2Cl)OCO3)N1 (centres undefined),2,-2,2236,-2,7.8,-17,-14
CCN(CC)CC#CC(C)(C)OC(C)=O,6,11,15834,1,-0.2,-3,15

# Compound activity as filed in PubChem BioAssay.
